NPR1 antag: antagonists of human natriuretic peptide receptor Npr1; P16066; HEK293 hNpr1 GloSensor cGMP, ANP-stimulated luminescence; Potency, µM (doses to about 46.3 µM), for inactives: at the top dose activity change, negative = inhibition, most hits filed as inhibitors; 76,000 tested, 1.6% active; AID 1347048; active = well fitted inhibition curve with a large enough effect; inconclusive = small, poorly fitted or top-dose-only effect; inactive = no such curve, though single readings can be large or run the other way;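 also: nearly all actives have a fitted effect of over 60% in size; nearly all hits also lower the signal before the agonist is added; a reference antagonist and vehicle were the controls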
Target sequence (P16066 whole entry, looked up): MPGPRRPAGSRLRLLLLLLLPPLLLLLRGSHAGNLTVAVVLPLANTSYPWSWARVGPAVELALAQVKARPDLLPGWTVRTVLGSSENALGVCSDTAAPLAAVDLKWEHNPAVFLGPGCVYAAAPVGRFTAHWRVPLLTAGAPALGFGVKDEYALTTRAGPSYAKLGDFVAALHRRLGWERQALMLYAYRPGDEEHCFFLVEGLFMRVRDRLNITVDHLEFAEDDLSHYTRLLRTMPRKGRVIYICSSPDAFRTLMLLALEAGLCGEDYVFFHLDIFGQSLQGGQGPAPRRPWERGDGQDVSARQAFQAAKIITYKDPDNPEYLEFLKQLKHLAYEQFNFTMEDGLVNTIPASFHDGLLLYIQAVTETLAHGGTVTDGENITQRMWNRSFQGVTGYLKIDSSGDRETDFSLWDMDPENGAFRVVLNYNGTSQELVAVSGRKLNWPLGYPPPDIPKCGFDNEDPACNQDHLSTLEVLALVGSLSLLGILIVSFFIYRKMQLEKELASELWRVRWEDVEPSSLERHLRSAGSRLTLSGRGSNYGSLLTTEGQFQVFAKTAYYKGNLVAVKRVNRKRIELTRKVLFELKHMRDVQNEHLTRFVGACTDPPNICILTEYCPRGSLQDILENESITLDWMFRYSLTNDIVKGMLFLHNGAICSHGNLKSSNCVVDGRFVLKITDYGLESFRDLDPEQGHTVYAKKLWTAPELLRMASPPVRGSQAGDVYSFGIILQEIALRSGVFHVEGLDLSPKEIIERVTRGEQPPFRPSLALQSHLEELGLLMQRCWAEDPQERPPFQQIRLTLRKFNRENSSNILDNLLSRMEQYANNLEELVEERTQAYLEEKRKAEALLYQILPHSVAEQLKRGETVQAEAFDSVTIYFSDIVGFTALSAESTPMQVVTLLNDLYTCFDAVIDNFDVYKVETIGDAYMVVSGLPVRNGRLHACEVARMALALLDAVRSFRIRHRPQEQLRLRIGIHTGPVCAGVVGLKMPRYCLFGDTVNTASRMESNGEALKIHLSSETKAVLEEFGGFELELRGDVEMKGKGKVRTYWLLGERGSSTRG
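HEK293 cells stably expressing human Npr1 and cGMP GloSensor pGS-40F, loaded 2 h with 2% GloSensor reagent, given compound 30 min at room temperature. Luminescence read before and 20 min after 0.1 nM hNppA.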
* marks the source's active call; other numbers are inactive results; u = inconclusive; [ ] = dose if it differs, or a comment. % is scaled to controls: 0 for no effect and ±100 for the full control effect; potency is read from the fitted curve at half-maximal effect. This is a subset; rates above refer to the full screens.

SMILES	NPR1 antag
N#Cc1ccc(CN2CCC3(Cc4ccccc4NC3=O)C2)cc1 (stereo unspecified)	-1%[70.6 µM]
O=C1CCN(S(=O)(=O)c2ccccc2)CCCN(C(=O)c2cccnc2)CCN1	3%
Cc1noc(C)c1-c1cc2c(c(-c3ccc([S+](C)(=O)[O-])cc3)c1)C(=O)N(C)C2	8%[70.6 µM]
CNC(=O)N1CCC(C2CCN(S(=O)(=O)C(C)C)C2)CC1 (stereo unspecified)	1%
CN1C(=O)C2(CCN([S+](=O)([O-])c3cccc(C(F)(F)F)c3)C2)c2ccccc21 (stereo unspecified)	11%
O=C(c1ccccc1)N1CCCC(N2CCN(c3cccc(C(F)(F)F)c3)CC2)C1 (stereo unspecified)	10%
CCC1=C(C(=O)OC)C(c2cccc(F)c2)N2C(CC(=O)NCC3CCCO3)=CSC2=N1 (stereo unspecified)	-15%
Cc1ccc(CN2CCc3c(cc(C(=O)N4CCCN(C)CC4)n3C)C2)cc1	4%
O=C(c1cccnc1)N1CCN(c2cc(-c3ccccc3)[nH]n2)CC1	5%
CC(C)c1ccc(NC(=O)[C@@H]2COCC(=O)N2Cc2ccccc2)cc1	-10%
CC1=C(C(=O)NC23CC4CC(CC(C4)C2)C3)C(c2cccnc2)NC(=O)N1 (stereo unspecified)	1%
O=C(c1cccc2c1OCCO2)N1CCCn2nc(CO)cc2C1	5%
CCn1c2ccccc2c2cc(C(=O)N3CCCCCCNC(=O)CC3)ccc21	-6%
COc1cccc(S(=O)(=O)N2CCC(N3C(=O)[C@H](OC)[C@@H]3c3ccncc3)CC2)c1	4%
CC1CCC2(CC1)NC(=O)N(CC(=O)N(C)c1ccccc1)C2=O (stereo unspecified)	0%
COc1cccc(C(=O)N2CCCCCC2c2nc(C)no2)c1 (stereo unspecified)	-1%
CCC(=O)N1CCCC1c1nc(CCOCC2CCCC2)no1 (stereo unspecified)	7%
CN1CCN(c2ccc3ncc(Nc4cccc(C(F)(F)F)c4)n3n2)CC1	-26%[70.6 µM]
COc1ccc(C(=O)N[C@H]2CCN3C(=O)c4cc(Br)ccc4NC(=O)[C@@H]3C2)cc1	6%
O=C1CN(c2ccc(C(=O)N3C[C@@H](C(=O)O)[C@H](C4CC4)C3)cc2)C(=O)N1	-9%
CCn1cc(-c2ccc(F)cc2)cc1C(=O)N1CCCCCC1	-3%
Cc1ccc(CNC(=O)C2CCCN(c3cnn(Cc4ccccc4)c(=O)c3)C2)o1 (stereo unspecified)	-8%
COCC(=O)N1CCCC(c2cc(N3CCOCC3)nc(C)n2)C1 (stereo unspecified)	4%
CC(=O)NCCNC(=O)C[C@@H]1CCNC[C@@H]1Cc1cc(-c2ccccc2)on1	-1%[70.6 µM]
Cc1noc(C)c1CN1CCc2nc(C(=O)NCc3ccccc3)oc2CC1	-14%[70.6 µM]
Next results follow:
SMILES	NPR1 antag
O=C(CN1C(=O)NC(c2ccccc2Cl)C2=C1COC2=O)Nc1cccc(C(F)(F)F)c1 (stereo unspecified)	u
COc1ccc2[nH]c3c(c2c1)CCNC31CCN(C(=O)c2nccn2C)CC1	-6%
CCCN(CC1CCOC1)C(=O)Nc1ccc(OC)c(F)c1 (stereo unspecified)	-12%
Cc1noc(-c2nc(-c3ccccc3C)no2)n1	3%
CN(C(=O)c1ccc(C(F)(F)F)cc1)C1CCc2ccccc21 (stereo unspecified)	7%[70.6 µM]
Cc1cc(C)cc(C(=O)N2CCC3(CC2)N=C(c2ccc(Cl)cc2)NO3)c1	3%
CCn1c(CN(C)C)nnc1C1CCN(C(=O)Cn2nc(C)cc2N)CC1	3%
CNC(=O)[C@@H]1C[C@@H](O)CN1C1CCN(C(=O)c2ccc(Cn3nc(C)cc3C)o2)CC1	16%
CCCOCCCNC(=O)c1c(C)noc1-c1cc(OC)c(OC)c(OC)c1	-10%
CC1=NOC2(CCN(C(=O)c3ccc4c(c3)OCO4)C2)C1 (stereo unspecified)	5%[70.6 µM]
Cc1cc(C(=O)N2C[C@@H](Oc3cccnc3)C[C@H]2C(=O)N2CCOCC2)n(C)n1	2%
CN(C)c1ccc(C(=O)N2CCN(S(C)(=O)=O)[C@H](C(=O)N[C@H](Cc3c[nH]c4ccccc34)C(N)=O)C2)cc1	4%
O=C(O)Cn1nc(C2CCCC2)nc1-c1cccc(Cn2cccn2)c1	4%
COc1ccc(-c2nc(C(C)C)nc3c2CCN(C(=O)Cc2ccc(F)cc2)CC3)cc1	9%
COCc1ccc2c(c1)c(OC(C)(C)C(=O)NCCCN1CCCC1=O)nn2CCC(C)C	-2%
COc1ccc(CCNC(=O)C(C)C2CCOCC2)cc1OC (stereo unspecified)	2%
CN1C[C@@H](NC(=O)CC(C)(C)C)C[C@H]1c1nc(Cc2ccccc2)no1	-2%[70.6 µM]
COC(=O)c1c(NC(=O)c2ccccc2)c2cc(NC3CCOCC3)cnc2n1CC1CCCO1 (stereo unspecified)	5%
CCC(=O)Nc1ccc(C2(C(=O)NCc3ccc(Br)cc3)CCC2)cc1	-1%
COc1ccc(CCNC(=O)C2CCCCC(=O)N2C)cc1OC (stereo unspecified)	1%
COc1ccc(C2Cn3cnc(C(=O)N4CCC(C(=O)NCc5ccccc5)CC4)c3CO2)cc1 (stereo unspecified)	-4%
Cc1nc(-c2ccc(Cl)cc2)n(Cc2ccc(F)cc2)c(=O)c1CCO	-6%
CCCCCNC(=O)Cc1csc2nc(C)c(-c3cc(C)n(-c4cc(F)ccc4C)n3)c(=O)n12	2%
CO[C@@H]1COCC[C@H]1NC(=O)CCCn1nnc(-c2ccc(F)cc2)n1	7%
CCOCCCNC(=O)CCc1nc(C2CCCN2C(=O)c2ccccc2)no1 (stereo unspecified)	-1%
(list continues)
SMILES	NPR1 antag
COc1cc(CN2C[C@@H]3C(=O)N(C)C(=O)[C@@H]3C2)cc(OC)c1	0%
CCN(CCOc1ccccc1)C(=O)c1ccoc1C	-1%
O=C(Nc1ccc(Oc2ccccc2)cc1)O[C@@H]1CO[C@H]2[C@@H]1OC[C@@H]2Nc1nccc(-c2cccs2)n1	-6%
CCN1c2cc(C(=O)NCc3cccc(Cl)c3)ccc2C(=O)N2CCCCC21 (stereo unspecified)	0%
Nc1nc(NCCCc2ccco2)cc(C2CC(O)C2)n1 (stereo unspecified)	2%
CN1c2cc(C(=O)Nc3ccc(OC(F)(F)F)cc3)ccc2C(=O)N2CCCC21 (stereo unspecified)	0%
CCC1c2nccn2CCCN1C(=O)COC (stereo unspecified)	-2%
O=C(Cn1nc2c(cc1=O)CCCCC2)NCc1ccccc1	1%
Cc1noc(C)c1S(=O)(=O)N1CC[C@@H]2C(=O)NCCCCCCN(Cc3ccncc3)[C@@H]2C1	4%
c1ccc2c(-c3cn(CC4CNCCO4)nn3)ccnc2c1 (stereo unspecified)	1%
Cc1nc(N2CCC(NC(=O)c3ccc4ccccc4n3)CC2)cc(C(F)(F)F)n1	10µM*
Cc1ncc(S(C)(=O)=O)c(N2CC(N3CCCCC3C)C2)n1 (stereo unspecified)	-1%
Cc1cccc(C(=O)NC2CCN(c3cc(-c4ccc(F)cc4)[nH]n3)CC2)c1	-26%
COc1ccc(C(=O)Nc2cccc(-c3nnc4n3CCCC4)c2)cc1	3%
Cc1cccc(NC(=O)c2cc3c(N4CCSCC4)nc(C)cn3n2)c1	-5%
O=C(NCCCn1ccnc1)C1CCCN(c2nc(-c3ccccc3)nc3c2CCC3)C1 (stereo unspecified)	2%
CN(CCc1ccccc1)C(=O)CCC1CCN(c2cc(NC3CC3)ncn2)CC1	11µM*
COC1CN(c2cccc(F)c2)C12CCN(C(=O)c1ccco1)CC2 (stereo unspecified)	5%
O=C(C1CCCCC1)N1CCC(OC2CCN(Cc3cccnc3)CC2)CC1	9%
COCC(=O)NCc1cc2n(n1)CCCN(Cc1cnn(C)c1C)C2	2%
Cc1nc2c(c(-c3ccc(O)cc3)n1)CN(Cc1cccn1C)CCC2	-10%
CC(C)CC(=O)N1CCN(C(=O)N2CC3CC(C2)[C@H]2CCCC(=O)N2C3)CC1 (stereo partly specified)	-1%
COCCN1CCCCCC(O)c2cc(C(=O)NCCc3nc4ccccc4n3C)ccc21 (stereo unspecified)	-2%
CCC(C(=O)NCc1nnc2c(-c3nc(C4CC4)no3)cccn12)c1ccccc1 (stereo unspecified)	5%
COc1ccc(-c2cc(N3CCN(C(=O)c4cc(F)ccc4Cl)CC3)n[nH]2)cc1	-6%

4 compounds drawn at random from those above:
SMILES	NPR1 antag
Cc1ncc(S(C)(=O)=O)c(N2CC(N3CCCCC3C)C2)n1 (stereo unspecified)	-1%
O=C(C1CCCCC1)N1CCC(OC2CCN(Cc3cccnc3)CC2)CC1	9%
CN1c2cc(C(=O)Nc3ccc(OC(F)(F)F)cc3)ccc2C(=O)N2CCCC21 (stereo unspecified)	0%
COC1CN(c2cccc(F)c2)C12CCN(C(=O)c1ccco1)CC2 (stereo unspecified)	5%

New compounds follow.
SMILES	NPR1 antag
CC(=O)Nc1ccc(C2(C(=O)NCc3ccc(F)cc3F)CCCCC2)cc1	-3%
O=C(NCc1c[nH]c2ncccc12)c1ccccc1	6%[70.6 µM]
Cc1cc(N2CCC(NCc3nc[nH]c3C)CC2)nc(-c2ccccc2O)n1	-2%
O=C1OCC2=C1C(c1ccccc1)NC(=O)N2CC(=O)N1CCCCC1 (stereo unspecified)	5%
CCOc1ccc2c(n1)CCN(C(=O)c1ccccn1)C2	10%
Cc1ccccc1CN1CCc2ncc(C(=O)NCCOc3ccccc3)n2CC1	-11%[70.6 µM]
O=C(CCC1CCN(C(=O)c2ccccc2F)CC1)NCCCc1ccccc1	-14%
CC(C)c1noc(-c2cn(C3CCN(C(=O)c4ccc5c(c4)OCO5)CC3)nn2)n1	0%
O=C(CN1CC2CC(C1)[C@H]1CCCC(=O)N1C2)N1CCN(c2ccc(Cl)cc2)CC1 (stereo partly specified)	6%
Cc1cc(C)n(CCC(=O)N[C@@H]2CCOC[C@H]2OCC2CCC2)c(=O)n1	8%
COc1cc(OC)cc(N2C(=O)[C@@H]3C[C@@H](NC(=O)c4cccs4)CCN3C2=O)c1	0%[70.6 µM]
O=C(CCc1ccc(=O)[nH]n1)N[C@@H]1COCC[C@H]1Oc1ccccn1	-1%
CN1CCCN(C(=O)CN2CCCc3nc(C4CC4)ncc3C2=O)CC1	-1%
N[C@@H]1CC[C@H](C(=O)N2CCC(Oc3cccc(C(F)(F)F)c3)CC2)C1	3%
CC(C)N1Cc2cc(C(=O)NC3CCN(Cc4ccccc4)CC3)sc2C1	-11%
CN(C)Cc1cn2c(=O)n(C)cc(-c3ccccc3Oc3ccccc3)c2n1	-2%[70.6 µM]
O=C(c1nccc2ccccc12)N1C[C@@H](CO)[C@H](c2ccccn2)C1	6%
Fc1ccc(N2CCN(c3nc(-c4ccccc4F)no3)CC2)cc1	u
O=C(CCC1CCCN(CC2=Cc3cc(Cl)ccc3OC2)C1)Nc1ccccc1F (stereo unspecified)	-28%
CCNc1cc(N2CCC(CCC(=O)N3CCCN(c4ncccn4)CC3)CC2)ncn1	u
COc1ccc(-c2cc(N3CCC(NC(=O)CCc4cccc(OC)c4)CC3)n[nH]2)cc1	-21%
COCCN1Cc2nc(-c3ccc(OC)c(F)c3)ccc2OCC1=O	0%[70.6 µM]
COc1ccc(OC)c(CN2CCCn3nc(C)c(-c4ccnn4C(C)C)c32)c1	-18%[70.6 µM]
O=C(CCc1nnn2c1CN(C(=O)c1cccc3[nH]ccc13)CC2)N1CCCC1	0%
Cc1ccc(-c2nc(C(=O)N3CCN(c4cc(C)ccc4C)CC3)no2)cc1	-14%

6 entries from above, sorted by SMILES length, highest first:
SMILES	NPR1 antag
COc1cc(OC)cc(N2C(=O)[C@@H]3C[C@@H](NC(=O)c4cccs4)CCN3C2=O)c1	0%[70.6 µM]
Cc1ccc(-c2nc(C(=O)N3CCN(c4cc(C)ccc4C)CC3)no2)cc1	-14%
CC(=O)Nc1ccc(C2(C(=O)NCc3ccc(F)cc3F)CCCCC2)cc1	-3%
O=C(CCC1CCN(C(=O)c2ccccc2F)CC1)NCCCc1ccccc1	-14%
CCOc1ccc2c(n1)CCN(C(=O)c1ccccn1)C2	10%
O=C(NCc1c[nH]c2ncccc12)c1ccccc1	6%[70.6 µM]

(list continues)
SMILES	NPR1 antag
COc1cccc(CNC(=O)[C@@H]2C[C@@H](O)CN2C2CCN(C(=O)c3cc(F)cc(F)c3)CC2)c1	u
Cc1ccc(C(=O)N2CC3CC(C2)[C@H]2CCCC(=O)N2C3)cn1 (stereo partly specified)	4%
Cc1noc(C)c1CCNC(=O)CCc1ccc2c(c1)CN(S(C)(=O)=O)CCO2	0%
CCCN(C)C(=O)CCc1ccc2c(c1)CN(S(C)(=O)=O)CCO2	-1%
CO[C@@H]1CCOC[C@H]1NC(=O)C1CCN(C(=O)c2ccccn2)CC1	1%
O=C(c1ccc(Cl)nc1)N1CCCN(c2nc3ncccc3o2)CC1	6%
COc1cc(F)ccc1-c1cc2c(ccn2C)c(C(=O)NCc2cccnc2)n1	-14%[70.6 µM]
CCc1noc(-c2ccn3c(CNC(=O)c4cccc(OC)c4)nnc3c2)n1	1%
CC(=O)Nc1cccc(-c2ncc3c(n2)OCCN(Cc2ccccc2)C3=O)c1	-1%[70.6 µM]
CN1CCN(C(=O)[C@@H]2CCC[C@@H](NC3CCOCC3)CN(C)C(=O)C2)CC1	-2%[70.6 µM]
O=S(=O)(c1ccccc1C(F)(F)F)N1CCC2(CCCNC2)C1 (stereo unspecified)	-3%
CC1(C(=O)N2CCC(C3CCN(S(C)(=O)=O)CC3)C2)CCOCC1 (stereo unspecified)	1%
CCN1C(=O)Cc2cc(C(=O)Nc3ccc(F)cc3)ccc21	2%
COc1ccc(-c2noc(-c3nnn4c3COC(c3ccc(F)cc3)C4)n2)cc1OC (stereo unspecified)	0%
